# Source: PubChem BioAssay
# PABP FP inh: blocks human PABP binding to poly(A) RNA | 1% of 290,000 active | P11940 | fluorescence polarization | inhibition, % at 35 µM | AID 2014;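 active = 50% or more with normal probe brightness, or confirmed in later tests; inconclusive = above 50% with abnormal brightness, or retests that disagree; inactive = below 50% or failed in later tests; about a fifth of its hits are not listed in these tables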;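 also: calls also rest on retests at 20 µM and on dose response follow-up; controls were probe without protein and protein plus probe with vehicle; some compounds called inactive have numbers as strong as hits; many hits fall short of the cut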
# eIF4H FP inh: inhibitors of RNA binding by human eIF4H | Q15056 | eIF4H fluorescence polarization binding assay | inhibition, % at 35 µM | 0.94% of 290,000 active | AID 2012;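 active = 50% or more with normal probe brightness, or confirmed in later tests; inconclusive = above 50% with abnormal brightness, or retests that disagree; inactive = below 50% or failed in later tests; about a fifth of its hits are not listed in these tables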;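 also: calls also rest on retests at 20 µM and on dose response follow-up; 0% = protein and probe with vehicle and 100% = probe without protein; strong numbers were not always called active; many hits fall short of the cut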
# HIV Env fusion: inhibitors of HIV Env-mediated cell fusion; AID 651610; HeLa-JRFL Env/CEM21 cell fusion, luciferase; inhibition, % at 12.3 µM; 1.1% of 360,000 active;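 active = mean replicate inhibition score of at least 50 and every replicate individually at or above 50; inconclusive = only one of the two criteria met; inactive = mean below 50 and not all replicates reaching 50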;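 also: 0% = plate neutral controls and 100% = maraviroc near 300 nM; one replicate is shown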
# MT1-MMP act inh: inhibitors of human MT1-MMP activation | P50281 | HT1080 RFP-PRO-GFP cells, GFP/RFP ratio fluorescence, overnight; percent of plate control window, DMSO zero | GFP/RFP ratio change, % at 20 µM | 0.061% of 360,000 active;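 active = GFP/RFP ratio change of at least 30% with cell ATP level not reduced by more than half and red fluorescence within 50% of control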; also: strong numbers were not always called active
#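 Assay system: RFP-PRO-GFP reporter HT1080 cells; read-out basis: GFP/RFP fluorescence ratio; benchmarks: DMSO wells and RFP-L50D-GFP cells; doses: 20 µM single dose, 1% DMSO; schedule: overnight cell settling, then overnight compound exposure, 37 °C, 5% CO2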
# UUG fidelity: yeast start codon fidelity modulation; S. cerevisiae UUG-firefly luciferase reporter, luminescence/redox ratio; activity score, % at 18.7 µM; 0.13% of 350,000 active; AID 602363;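 active = replicate mean at a twofold rise or more, about +100% in these data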;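 also: firefly luciferase made from a UUG start codon reports start codon fidelity; reporter light over untreated wells divided by growth signal over untreated wells; some hits fall short of that in this replicate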
# Rce1 inh: yeast Ras-converting enzyme inhibition. yeast membranes, quenched prenylated peptide cleavage fluorescence. calls only. 0.27% of 290,000 active. AID 2563;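 active = fall in fluorescence gain of 50% or more versus controls, with final raw signal at or below 3038400; inconclusive = same 50% fall but final raw signal above 3038400; inactive = fall in fluorescence gain under 50%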;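 also: plate controls were neutral control wells for no effect and wells lacking membranes for full effect; tested at 10 µM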
# Target sequence (Q03530 whole entry, looked up): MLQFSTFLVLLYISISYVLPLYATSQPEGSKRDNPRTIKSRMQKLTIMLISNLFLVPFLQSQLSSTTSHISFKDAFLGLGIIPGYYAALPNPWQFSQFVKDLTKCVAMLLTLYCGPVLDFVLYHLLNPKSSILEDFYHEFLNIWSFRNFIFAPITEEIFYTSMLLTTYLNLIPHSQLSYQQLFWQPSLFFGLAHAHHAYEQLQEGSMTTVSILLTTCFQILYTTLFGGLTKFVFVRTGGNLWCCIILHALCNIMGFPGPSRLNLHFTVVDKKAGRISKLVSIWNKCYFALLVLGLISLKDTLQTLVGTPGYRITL
# CSC inhib: cancer stem cell inhibition | cancer stem cell-like cells viability, luminescence | inhibition, % at 7.5 µM | 1.1% of 300,000 active;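 active = mean at 75% or more and at least half the replicates too; inconclusive = mean and replicates disagree; tested in HMLE shEcad cells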;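 also: 0% = median of negative and 100% = median of positive control wells; the first replicate is given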
# eIF4H FP inh retest: also measured in eIF4H FP inh; calls as there; inhibition, %; compound at 20 µM; confirmation average;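 mean of two retest wells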
# PABP FP inh retest: second read-out of PABP FP inh, no call of its own (marks repeat the call); inhibition, %; compound at 20 µM; confirmation repeats;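 mean of two retest wells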
# MT1-MMP act inh RFP: second read-out of MT1-MMP act inh, no call of its own (marks repeat the call); RFP signal change, %; measured here: RFP expression control read;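 0 = vehicle wells; hits needed this value within 50% of zero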
# Numbers without * were called inactive; i = inactive; ? = inconclusive; . = not tested or not shown.
SMILES,PABP FP inh,eIF4H FP inh,HIV Env fusion,MT1-MMP act inh,MT1-MMP act inh RFP,UUG fidelity,Rce1 inh,CSC inhib,others
Cc1nn(-c2ccccc2)c(C)c1NC(=O)COC(=O)c1ccc(NC(=O)CC#N)cc1,10,-1,11,-3,0,-8,i,-11,
O=C(CSc1nnc(-c2ccccc2)o1)NC(=O)Cc1ccccc1,.,.,-3,0,3,-19,.,-4,
COc1ccc(NC(=O)c2ccc(-c3ccccc3C(F)(F)F)o2)cc1,9,-8,.,0,1,-12,i,20,
CCOc1ccc(CCN2C(=S)N([C@@H](CC(C)C)CN3CCC[C@@H]3CN3C(=S)NC[C@@H]3CC(C)C)C[C@@H]2Cc2ccc(O)cc2)cc1,.,.,6,-5,-10,-19,.,.,
CN(Cc1cn[nH]c1-c1ccc2c(c1)OCO2)C1CCOCC1,-8,-10,-4,8,8,-15,i,1,
O=C(COc1cccc(C(F)(F)F)c1)Nc1ccccc1N1CCCCC1,.,.,7,-2,-5,4,i,.,
Cc1ccc(SCC(=O)Nc2ccc(N3CCN(C)CC3)c(F)c2)cc1,-9,-8,-31,-9,-1,-21,i,16,
S=c1[nH]ccn1-c1ccc(Cl)cc1,0,1,3,3,4,-13,i,9,
O=C(Nc1cc(Cl)ccn1)C1(c2ccccc2)CC1(Cl)Cl (stereo unspecified),-2,-3,-5,3,-7,-37,i,17,
O=C(O)c1ccc(NC(=S)NC(NC(=O)c2ccco2)C(Cl)(Cl)Cl)cc1 (stereo unspecified),1,4,25,0,10,-16,i,-1,
O=C(NCCc1ccccc1)C1=COCCO1,.,.,-24,6,6,-14,i,-4,
NS(=O)(=O)c1ccc(N/N=C/c2ccncc2)cc1,5,-6,-6,-4,0,.,i,-17,
O=C(NCc1cccnc1)c1ccc2c(c1)OCO2,-4,-4,-57,-1,5,-9,i,-17,
CCN(CC)CCCCN1c2ccccc2Sc2ccccc21,-2,0,-37,-7,-5,-2,i,-6,
Clc1nc2ccccc2cc1-c1nnn(-c2ccccc2Br)n1,.,.,-69,2,3,-16,i,-3,
COc1cccc(-c2nc(CS(=O)(=O)CC(=O)Nc3ccccc3Br)c(C)o2)c1,4,-6,17,1,0,5,i,-1,
CCCCn1c(N)c(N(CC(C)C)C(=O)CC2CCCCC2)c(=O)[nH]c1=O,.,.,-17,-6,-1,.,i,.,
O=[N+]([O-])c1ccccc1S(=O)(=O)N1CCN(CC2CC3C=CC2C3)CC1 (stereo unspecified),11,-2,16,4,6,.,i,-9,
CC(Sc1nnnn1-c1ccccc1)C(=O)Nc1ccccc1-c1ccccc1 (stereo unspecified),3,-12,21,-6,-6,.,i,5,
CCC(=NNC(=O)c1cccc(S(=O)(=O)N2CCOCC2)c1)c1ccccc1,.,.,.,5,7,-2,.,-10,
O=C(N/N=C/c1ccc(-c2cccc(C(F)(F)F)c2)o1)c1ccccc1O,-6,33,18,2,-5,.,i,32,
N#CCCn1cc(/C=N/NC(=O)c2ccncc2)c(-c2ccc(F)cc2)n1,-1,-4,26,0,3,.,.,-13,
COc1ccc(OC)c(NC(=O)C(=O)NCCC2=CCCCC2)c1,-10,3,11,0,1,.,i,7,
CCOC(=O)c1cnc2c(cnn2C)c1NCCCn1ccnc1,?,-3,-1,-3,-1,37,i,-8,
CCc1cc2c(NC(C(=O)O)C(C)C)ncnc2s1 (stereo unspecified),10,0,-47,-2,-1,-19,i,-10,
CC(C)n1cnc2c(N(C)c3cccc(Cl)c3)nc(N(CCO)CCO)nc21,-7,3,32,9,-2,2,i,7,
COc1cc2c(cc1NC(=O)/C=C/c1ccccc1)oc1ccccc12,-4,6,.,-1,-1,.,.,73,
O=C(NC(c1ccc(-c2ccccc2)cc1)c1cnccn1)C1CCN(CCCOc2ccccc2)CC1 (stereo unspecified),.,.,26,-1,-1,-11,.,.,
CC(C)(C)c1ccc(OCC(=O)N2CCN(c3ccccn3)CC2)cc1,.,.,9,-10,-4,3,.,-13,
O=c1[nH]c(=O)c2[nH]c(=S)n(-c3ccccc3)c2[nH]1,.,.,-2,-1,2,6,.,.,
COC(=O)CNC(c1ccccc1)c1cc(C)ccc1NC(=O)CNC(=O)OCc1ccccc1 (stereo unspecified),8,4,73*,2,-2,8,i,-4,
CSc1nsc(SCC(=O)Nc2ccc(C(N)=O)cc2)n1,-4,-6,7,1,5,-9,i,-3,
CCOc1ccc2c(c1)C(N(CCN1CCOCC1)C(=S)Nc1ccccc1OC)CC(C)(C)O2 (stereo unspecified),5,-8,-16,-2,-8,.,i,6,
O=C(COC(=O)c1ccc(Br)cc1)NCc1ccccc1,4,-9,-18,3,3,1,i,-7,
COc1ccc(NC(=O)COc2coc(CN3CCCc4ccccc43)cc2=O)cc1,.,.,.,7,-2,-15,i,37,
Cc1cc(C)nc(NC(=O)CSc2nn(-c3ccccc3)c(=S)s2)n1,-14,2,17,6,2,-20,i,-6,
CC(=O)NC(c1ccccc1)c1nc(-c2ccc3ccccc3c2)cs1 (stereo unspecified),.,.,-44,4,-1,-9,.,.,
COc1ccc(S(=O)(=O)N2c3ccc(F)cc3CCC2C)cc1 (stereo unspecified),.,.,-45,13,-6,1,i,63,
CCOC(=O)CS(=O)(=O)c1nc(-c2ccccc2)cc(C(F)(F)F)n1,-1,-4,.,3,-10,.,i,99*,
C[C@@]12C(=O)Nc3ccc(Cl)cc3C(=O)N1[C@H]1c3cc(Cl)ccc3OC[C@@H]1[C@@H]2c1ccccc1,.,.,21,-28,-16,-16,.,27,
CC(=O)N1CCCN(C(=O)c2ccc3nc(Cc4ccccc4F)oc3c2)CC1,-7,-6,6,1,-1,4,i,24,
COc1cccc(NC(=S)N(CCN(C)C)C(C)c2cccnc2)c1 (stereo unspecified),15,3,1,2,0,-22,i,-4,
O=C1/C(=C/Nc2cccc([N+](=O)[O-])c2)CCc2ccccc21,6,2,-85,0,3,-31,i,-1,
COc1cc(-c2noc(CCCC(=O)NCc3ccccc3)n2)cc(OC)c1OC,3,5,-9,14,2,11,i,-11,
O=c1[nH]c(=O)n(CCOc2ccc(Cl)cc2)cc1Br,-6,-4,.,1,0,-3,i,-11,
Cc1cccc(N(C(=O)CNC(=O)c2ccco2)C(C(=O)NC2CCCC2)c2ccncc2)c1C (stereo unspecified),-5,-5,3,3,2,-11,.,-16,
Fc1ccc(NC(=S)Nc2cccc3ccccc23)cc1,36,39,-2,5,5,-5,i,3,
Cc1cc(C)cc(NC(=O)CN2CCc3cc4c(cc3C2C)OCCCO4)c1 (stereo unspecified),1,73,15,1,-5,-1,i,10,eIF4H FP inh retest=-9;PABP FP inh retest=5
Cc1cccc(Nc2nc(-c3ccncc3)cs2)c1,16,-11,4,-7,-16,.,i,43,
CCOc1ccc(C2C(C(=O)c3cccs3)=C(O)C(=O)N2Cc2cccnc2)cc1OC (stereo unspecified),7,2,-5,1,4,.,i,-3,
CC(=O)c1c(C)[nH]c(C(=O)OCc2nc3ccsc3c(=O)[nH]2)c1C,.,.,-17,0,-4,-15,i,.,
Cc1cccc(C(=O)OCC(=O)N(CC(C)C)c2c(N)n(Cc3ccccc3)c(=O)[nH]c2=O)c1C,.,.,11,-11,-8,-15,.,.,
COc1ccc(-n2nc([N+](=O)[O-])c(=NCc3ccc4c(c3)OCO4)n2O)cc1,-8,5,.,-1,-7,-1,i,-6,
S=C(NCC1CCCO1)N1CCN(c2cccc(Cl)c2)CC1 (stereo unspecified),16,3,-5,4,-6,.,i,-8,
Cc1cccc(-c2c3c(=O)n(C)c(=O)n(C)c3c3cccnn23)c1,13,10,25,-19,-2,-22,i,-6,
CCS(=O)(=O)N1CCN(CC2CC3C=CC2C3)CC1 (stereo unspecified),4,8,23,-6,-3,-10,i,9,
CSCCC(=O)N1CCC(n2nccc2NC(=O)c2ccc3c(c2)OCO3)CC1,-12,-8,.,-2,1,-19,.,4,
OC(CCCN1CCC(O)(c2ccc(Cl)cc2)CC1)c1ccc(F)cc1 (stereo unspecified),35,6,5,7,1,-11,i,10,
O=C(Nc1ccc([N+](=O)[O-])cc1)C1(c2ccccc2)CCOCC1,-6,-5,11,4,5,.,i,-14,
Cc1ccc(SCC2(O)CCN(C(=O)c3ccc(Cl)cc3)CC2)cc1,5,-2,.,0,-5,-7,i,8,
# Next entries follow:
SMILES,PABP FP inh,eIF4H FP inh,HIV Env fusion,MT1-MMP act inh,MT1-MMP act inh RFP,UUG fidelity,Rce1 inh,CSC inhib,others
CC(/C=N/NC(=O)Cc1cc(=O)[nH][nH]1)=C\c1ccccc1,-5,-8,.,5,3,-6,i,-1,
CC(O)c1nc2ccccc2n1CCCCOc1ccccc1 (stereo unspecified),-3,-8,0,4,-4,-15,i,-5,
COC(=O)c1ccc(C(=O)N(C)C2CCCN(Cc3ccccc3F)C2)nc1 (stereo unspecified),-1,-2,13,-2,2,-5,i,12,
Cc1ccc(-c2nc(CNC(=O)c3cc(C)on3)cs2)cc1,-10,0,18,1,-11,24,i,15,
CCN1CCCC1CNC(=O)Cn1cccc1C(=O)c1ccccc1 (stereo unspecified),-8,-6,.,3,6,-6,i,-7,
CC1=CC(C)C2(CO)COC(c3cccnc3)C1C2C (stereo unspecified),0,-3,6,-1,4,.,i,-13,
COc1ccccc1-c1cc2nc(NCc3cccc(Cl)c3)ccn2n1,.,.,8,1,-1,-1,.,.,
CCCCOc1ccc(N2C(=O)CC(N(CCc3ccccc3)C(=O)/C=C/C(=O)O)C2=O)cc1 (stereo unspecified),16,22,.,6,3,1,i,4,
COc1ccc(N(CC(=O)N2CC=C(c3ccccc3)CC2)S(=O)(=O)c2c(C)noc2C)cc1,1,-14,-4,1,-7,3,.,-17,
Cc1cc(Cl)cc2c1NC(=O)[C@]21[C@@H]2C(=O)N(Cc3ccccc3)C(=O)[C@@H]2[C@@H]2CCCN21,27,16,-59,-9,-2,-2,i,-9,
O=C(CCCCCN1C(=O)c2ccccc2C1=O)NCc1ccco1,7,3,.,2,1,-10,i,-9,
CCOc1ccc(CCNC(=O)/C=C/c2ccco2)cc1OCC,5,-4,16,1,3,-13,i,3,
CN(Cc1cc(=O)n2ccsc2n1)C1CCCCC1,3,10,-5,1,3,.,i,-6,
COc1cc(/C=C2/C(=O)NN(c3cccc(F)c3)C2=O)ccc1OC(=O)c1ccco1,-2,-13,4,1,3,-2,i,12,
COc1ccc(C(=O)c2c(C(F)(F)F)oc3c2C(=O)c2ccccc2C3=O)cc1,9,4,.,-3,-23,.,i,106*,
COc1ccc(NS(=O)(=O)c2c(C(=O)N3CCCCCC3)c(C)n(C)c2C)cc1OC,-6,1,3,-1,3,-7,i,9,
COc1cc(C2C3=C(CC(C)(C)CC3=O)Nc3c2c(=O)[nH]c(=O)n3Cc2ccccc2)ccc1O (stereo unspecified),4,-5,-10,-1,-2,5,i,-1,
N=c1c2c(ncn1CCCO)Oc1cc(O)ccc1C2c1ccccc1 (stereo unspecified),-6,3,4,-2,3,-15,i,-18,

# Compounds shown so far that contain a COOH group, in the order listed:
SMILES,PABP FP inh,eIF4H FP inh,HIV Env fusion,MT1-MMP act inh,MT1-MMP act inh RFP,UUG fidelity,Rce1 inh,CSC inhib,others
O=C(O)c1ccc(NC(=S)NC(NC(=O)c2ccco2)C(Cl)(Cl)Cl)cc1 (stereo unspecified),1,4,25,0,10,-16,i,-1,
CCc1cc2c(NC(C(=O)O)C(C)C)ncnc2s1 (stereo unspecified),10,0,-47,-2,-1,-19,i,-10,
CCCCOc1ccc(N2C(=O)CC(N(CCc3ccccc3)C(=O)/C=C/C(=O)O)C2=O)cc1 (stereo unspecified),16,22,.,6,3,1,i,4,
